# FGF22 binding = binders of human FGF22 protein, primary screen, FGF22 synaptogenesis inhibitor project, biophysical, thermal shift, single point; Fibroblast growth factor 22 (Homo sapiens), Q9HCT0; 340,000 compounds, 1.5% hits; calls only at 9.99 µM; recombinant FGF22 thermal shift, SYPRO orange fluorescence; percent of sucrose octasulfate shift, DMSO zero;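 active = melting point raised past a set limit in the mean and every replicate; three in four hits are not shown here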
# Target sequence (Q9HCT0 whole entry, looked up): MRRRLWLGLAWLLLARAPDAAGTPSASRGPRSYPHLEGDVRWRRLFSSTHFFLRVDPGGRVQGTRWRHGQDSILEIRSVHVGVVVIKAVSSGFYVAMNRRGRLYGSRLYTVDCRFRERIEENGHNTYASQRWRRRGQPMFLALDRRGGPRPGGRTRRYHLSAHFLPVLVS
# AF4-AF9 inh = inhibitors of AF4 peptide binding to AF9, primary screen, biochemical, AlphaScreen, biotin-AF4 peptide, FLAG-AF9, single point. Protein AF-9 (Homo sapiens), P42568. inhibition, % at 10 µM. 350,000 compounds, 0.47% hits. AID 651704, 2012;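 active = every replicate reaching a set inhibition limit, whatever the replicate mean, cut at about 25% in these data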;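 note: 0% = plate neutral control median and 100% = total signal loss; the record names both 10 and 1 µM as test concentration; the first replicate is given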
# Target sequence (P42568 whole entry, looked up): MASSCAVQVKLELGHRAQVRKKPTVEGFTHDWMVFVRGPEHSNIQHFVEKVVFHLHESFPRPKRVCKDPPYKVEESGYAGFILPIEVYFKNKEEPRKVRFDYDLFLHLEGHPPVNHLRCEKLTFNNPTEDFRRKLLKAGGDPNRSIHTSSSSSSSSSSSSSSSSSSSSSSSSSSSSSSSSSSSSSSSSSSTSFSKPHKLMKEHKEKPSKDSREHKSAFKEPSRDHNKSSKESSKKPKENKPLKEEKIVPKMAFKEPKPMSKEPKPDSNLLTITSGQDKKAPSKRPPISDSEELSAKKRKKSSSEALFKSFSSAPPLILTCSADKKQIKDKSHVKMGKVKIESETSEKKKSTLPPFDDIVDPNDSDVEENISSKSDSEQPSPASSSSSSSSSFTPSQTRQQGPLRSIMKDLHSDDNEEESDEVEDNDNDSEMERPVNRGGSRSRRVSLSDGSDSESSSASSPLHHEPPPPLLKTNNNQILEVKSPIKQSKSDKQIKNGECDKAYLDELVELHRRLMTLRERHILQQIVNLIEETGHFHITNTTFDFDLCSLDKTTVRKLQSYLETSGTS
# rRNA inh HTS = reduced GFP signal of wild-type E. coli, primary screen, bacterial rRNA inhibitor project, GFP/RFP fluorescence, OD600, single point. E. coli WT GFP vs humanized-ribosome RFP mutants, 24 h; hits give low values; DMSO median 0, no signal -100. GFP signal change (wild-type ribosome), % (concentration not given with the values). 350,000 compounds, 1.6% hits;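 active = significant combined selectivity score with lowered wild-type GFP, culture density cut under 30%, mutant RFP and density less affected; inactive = any of these conditions unmet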; note: one replicate is shown; some compounds called inactive have numbers as strong as hits
# rRNA inh HTS OD600 = further read-out of rRNA inh HTS, marked with its call; OD600 change, %; measured here: OD600 growth;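 optical density of the mix in the first replicate; 0 = DMSO median and -100 = no signal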
# rRNA inh HTS RFP = recorded beside rRNA inh HTS, whose call it bears; RFP signal change, %; measured here: RFP humanized mutant strains;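 first replicate; 0 = DMSO median and -100 = no signal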
# Numbers without * were called inactive; i = inactive; & = joins results of further samples. Not all compounds are listed, so the mix of outcomes need not match the whole.
# Values run as follows: FGF22 binding	AF4-AF9 inh	rRNA inh HTS	rRNA inh HTS OD600	rRNA inh HTS RFP
- C[C@H]1CN([C@@H](C)CO)C(=O)c2c(c3ccccc3n2C)-c2ccccc2CO[C@H]1CN(C)Cc1ccc2c(c1)OCCN2C
    i	44*	-8	-22	19
- Cc1ccc(S(=O)(=O)Nc2ccc3c(c2)CC(=O)N([C@H](C)CO)C[C@H](C)[C@H](CN(C)S(=O)(=O)c2ccc(C)cc2)O3)cc1
    i	-6.3	-1	1	2.9
- COc1ccc2c3c([nH]c2c1)[C@@H](CO)N(C(=O)c1ccncc1)CC31CCN(Cc2cccnc2)CC1
    i	3.0	3	10	-1.4
- C[C@@H](NC(=O)C[C@@H]1CC[C@H]2[C@@H](COC[C@@H](O)CN2C(=O)Nc2cccc(F)c2)O1)c1ccccc1
    i	-0.5	-12	-6	5.2
- C[C@@H]1CN([C@@H](C)CO)S(=O)(=O)c2ccc(C#CCC3CCCC3)cc2O[C@@H]1CN(C)C(=O)c1cnccn1
    i	-1.9	-5	-11	-0.8
- CC(=O)c1cc2cccc(OC3(C)CCN(Cc4ccc5ccccc5c4)C3)c2o1 (centres undefined)
    i	5.0	-34	-68	-7.5
- C[C@@H]1CN([C@H](C)CO)C(=O)c2cc(NC(=O)NC3CCCCC3)ccc2O[C@@H]1CN(C)CC1CCCCC1
    i	0.1	2	3	0.1
- C[C@H](CO)N1C[C@H](C)[C@H](CN(C)Cc2ccc(-c3ccccc3)cc2)Oc2ccc(N(C)C)cc2CC1=O
    i	29*	-17	-48	20
- C[C@H]1CN([C@@H](C)CO)S(=O)(=O)c2ccc(C#CC3CC3)cc2O[C@H]1CN(C)CC1CCOCC1
    i	6.9	2	6	-3.6
- C[C@H](CO)N1C[C@H](C)[C@H](CN(C)Cc2ccc(Oc3ccccc3)cc2)Oc2ccc(NC(=O)CCN3CCOCC3)cc2CC1=O
    i	7.0	1	2	7.3
- CCNC(=O)[C@@H]1[C@@H](CO)[C@@H]2Cn3c(ccc(-c4ccccc4)c3=O)[C@@H]2N1C(=O)C1CCCC1
    i	-2.2	3	2	2.0
- COc1ccc2c3c(n(C)c2c1)[C@H](CO)N(C(=O)CN1CCOCC1)CC31CN(C(C)=O)C1
    i	-0.5	5	7	-4.3
- COc1ccc(S(=O)(=O)N(C)C[C@H]2OCCCC[C@H](C)Oc3ccc(NS(=O)(=O)c4cccs4)cc3C(=O)N([C@@H](C)CO)C[C@@H]2C)cc1
    i	2.2	-5	-5	2.5
- C/C=C/c1ccc2c(c1)O[C@H](CN(C)S(=O)(=O)c1ccccc1OC)[C@@H](C)CN([C@H](C)CO)S2(=O)=O
    i	4.9	-3	-8	1.0
- O=S1(=O)N[C@H](Cc2ccccc2)COc2cccc(N3CCC[C@H]3CO)c21
    i	-1.3	-22*	-13*	0.1*
- Cc1noc(C)c1S(=O)(=O)Nc1ccc2c(c1)C(=O)N([C@H](C)CO)C[C@H](C)[C@H](CN(C)C(=O)NC(C)C)OCCCC[C@H](C)O2
    i	1.7	3	0	-1.3
- C[C@@H]1CN([C@@H](C)CO)C(=O)Cc2cc(NC(=O)Cc3ccccc3)ccc2O[C@@H]1CN(C)Cc1ccc(-c2ccccc2)cc1
    i	0.9	2	4	-0.7
- CCCCCCN1CCN(C2CN(CCc3ccccc3)S(=O)(=O)C2)CC1 (centres undefined)
    i	1.1	2	9	-0.8
- C[C@H](NC(=O)C[C@H]1C[C@H]2c3cc(NC(=O)Cc4ccncc4)ccc3O[C@H]2[C@@H](CO)O1)c1ccccc1
    i	2.9	0	3	-0.9
- COc1ccccc1NC(=O)N1[C@H](C#N)[C@@H](c2ccccc2)[C@@H]1CO
    i	-0.9	1	2	-0.6

# 2 of these compounds in a different format.
C[C@@H]1CN([C@@H](C)CO)C(=O)Cc2cc(NC(=O)Cc3ccccc3)ccc2O[C@@H]1CN(C)Cc1ccc(-c2ccccc2)cc1
- FGF22 binding: i
- AF4-AF9 inh: 0.9
- rRNA inh HTS: 2
- rRNA inh HTS OD600: 4
- rRNA inh HTS RFP: -0.7

CCCCCCN1CCN(C2CN(CCc3ccccc3)S(=O)(=O)C2)CC1 (centres undefined)
- FGF22 binding: i
- AF4-AF9 inh: 1.1
- rRNA inh HTS: 2
- rRNA inh HTS OD600: 9
- rRNA inh HTS RFP: -0.8

# The listing continues:
# Values run as follows: FGF22 binding	AF4-AF9 inh	rRNA inh HTS	rRNA inh HTS OD600	rRNA inh HTS RFP
- COCC(=O)N(C)C[C@@H]1Oc2cc(C#C[C@@H](C)O)ccc2S(=O)(=O)N([C@@H](C)CO)C[C@H]1C
    i	-1.4	1	3	-2.7
- C[C@H](CO)N1C[C@H](C)[C@@H](CN(C)Cc2ccc(F)cc2)Oc2cc(C#Cc3ccccn3)ccc2S1(=O)=O
    i	0.3	-3	4	9.8
- O=C(Nc1cc(C(F)(F)F)cc(C(F)(F)F)c1)O[C@@H]1c2ccccc2[C@@H]2Cc3csc[n+]3[C@H]12
    i	3.2	-26	-29	12
- CC(C)NC(=O)N[C@H]1CC[C@H](CC(=O)O)O[C@H]1CO
    i	-0.4	1	3	-0.8
- C[C@@H]1CN([C@H](C)CO)C(=O)c2cc(NC(=O)C3CCCCC3)ccc2O[C@@H](C)CCCCO[C@H]1CN(C)S(C)(=O)=O
    i	-2.0	-1	0	-2.8
- O=C(c1cccc(F)c1)N1CC(=O)N2[C@@H](CO)[C@@H](c3ccc(-c4ccccc4F)cc3)[C@@H]2C1
    i	-1.6	-2	-24	5.5
- CCCS(=O)(=O)NC(=O)C1(C)CCN(C(=O)C2(c3ccc(Cl)cc3)CCCC2)C1 (centres undefined)
    i	-0.6	1	0	-1.2
- CO[C@H](CN(C)C(=O)Nc1ccc(C(F)(F)F)cc1)[C@H](C)CN(Cc1ccccc1Cl)[C@@H](C)CO
    i	0.6	-47	-69	1.5
- COC(=O)/C=C1\OC(C2CC2)c2ccccc21 (centres undefined)
    i	-0.3	2	12	-0.9
- C[C@@H]1CCCCO[C@H](CN(C)C(=O)Nc2ccc(C(F)(F)F)cc2)[C@@H](C)CN([C@@H](C)CO)C(=O)c2cc(NS(=O)(=O)c3cn(C)cn3)ccc2O1
    i	1.7	-1	-11	-5.9
- Cc1noc(C)c1NC(=O)Nc1ccc2c(c1)C(=O)N([C@H](C)CO)C[C@@H](C)[C@@H](CN(C)C(=O)Nc1ccc3c(c1)OCO3)O2
    i	-0.6	3	8	-0.3
- C[C@@H]1CN([C@@H](C)CO)C(=O)Cc2cc(NC(=O)Cc3cn(C)c4ccccc34)ccc2O[C@@H]1CN(C)CC1CC1
    i	6.6	1	5	-2.3
- COc1ccc(S(=O)(=O)Nc2ccc3c(c2)C(=O)N([C@H](C)CO)C[C@@H](C)[C@@H](CN(C)S(=O)(=O)c2ccccc2)OCCCC[C@@H](C)O3)cc1
    i	2.6	-3	4	0.8
- COc1cccc(S(=O)(=O)N2C[C@H](O)COC[C@@H]3O[C@@H](CC(=O)NCCCN4CCOCC4)CC[C@H]32)c1
    i	1.0	2	16	-1.0
- C[C@H]1CN([C@@H](C)CO)C(=O)c2cccc(NC(=O)Nc3ccc(C(F)(F)F)cc3)c2O[C@@H]1CN(C)CC1CCCCC1
    i	3.6	-1	12	-2.1
- CC(=O)Nc1ccc(-c2ccnc3c2CC(C(=O)Nc2ccccc2)O3)cc1 (centres undefined)
    i	0.3	3	-4	2.3
- CCC(=O)N(C)C[C@H]1Oc2cc(-c3cccc(C#N)c3)ccc2S(=O)(=O)N([C@@H](C)CO)C[C@H]1C
    i	-4.8	-1	5	1.7
- CCCN(C)C1CN(Cc2cn(Cc3cccc(C(F)(F)F)c3)nn2)S(=O)(=O)C1 (centres undefined)
    i	0.1	-2	2	-1.0
- CO[C@@H]1CN(C)C(=O)c2ccc(NC(=O)CC(F)(F)F)cc2OC[C@@H](C)N(C(=O)c2ccccc2F)C[C@@H]1C
    i	-2.6	1	0	5.5
- O=C(Cc1cccnc1)N1[C@H](CO)[C@H](c2ccccc2)[C@H]1CNCC1CCC1
    i	-0.2	-5	-2	-0.6
- COC(=O)[C@@H]1[C@@H](CO)[C@@H]2Cn3c(ccc(-c4ccccc4)c3=O)[C@@H]2N1Cc1ccccn1
    i	-20	0	-3	1.9
- CCS(=O)(=O)N1Cc2cc(C(=O)N(C)C)nc(-c3cccc(-c4ccc(C#N)cc4)c3)c2[C@H]1CCO
    i	1.8	2	-8	0.5
- Cc1noc(C)c1NC(=O)N(C)C[C@@H]1Oc2ncc(C#CC(C)C)cc2C(=O)N([C@H](C)CO)C[C@@H]1C
    i	-3.7	1	-1	-1.7
- Cc1noc(C)c1S(=O)(=O)N(C)C[C@H]1Oc2ccc(NS(=O)(=O)c3cn(C)cn3)cc2C(=O)N([C@H](C)CO)C[C@H]1C
    i	2.2	2	6	1.1
- CCC(=O)N(C)C[C@H]1Oc2ncc(C#CC(C)(C)O)cc2C(=O)N([C@@H](C)CO)C[C@@H]1C
    i	-4.2	2	4	-1.2
- CO[C@@H]1CN(C)C(=O)c2cc(NC(=O)c3ccccc3F)ccc2OC[C@@H](C)N(CC2CCOCC2)C[C@H]1C
    i	0.5	-3	3	-0.6
- Cc1ccc(S(=O)(=O)N2Cc3ccccc3CC2C(N)=O)cc1 (centres undefined)
    i	-2.2	2	10	-0.6
- Cc1ccc(S(=O)(=O)Nc2ccc3c(c2)C(=O)N([C@@H](C)CO)C[C@@H](C)[C@H](CN(C)C(=O)Nc2cccc4ccccc24)OCCCC[C@@H](C)O3)cc1
    i	-6.9	1	12	0.6
- C[C@H]1CN([C@@H](C)CO)C(=O)CCCn2cc(nn2)CO[C@@H]1CN(C)C(=O)Nc1cccc(Oc2ccccn2)c1
    i	-4.7&-0.5	6&1	5&0	1.1&-2.0
- CN1C(=O)c2cc(NC(=O)c3ccccc3)ccc2OC[C@H]2O[C@@H](CC(=O)O)CC[C@H]21
    i	0.0	-6	2	-1.6
- CN1C(=O)c2cc(NC(=O)Nc3ccc(Cl)cc3)ccc2OC[C@@H]2O[C@@H](CC(=O)NCCN3CCCCC3)CC[C@H]21
    i	14	4	12	4.9
- COc1cccc(CNC(=O)C[C@@H]2C=C[C@@H](NC(C)=O)[C@@H](CO)O2)c1
    i	-1.9	2	6	3.2
- Cc1ccc([C@H]2N[C@]3(CCCN(Cc4ccc(Br)cc4)C3=O)[C@H]3C(=O)N(Cc4ccccc4)C(=O)[C@@H]23)cc1
    i	1.9	2	-1	-1.2
- CCC(=O)N1[C@H](CO)[C@@H](c2ccccc2)C12CN(C(=O)c1ccc(F)cc1)C2
    i	-2.5	4	7	-3.5
- C[C@@H]1CN([C@@H](C)CO)C(=O)c2cc(N(C)C)ccc2O[C@@H](C)CCCCO[C@@H]1CN(C)C(=O)c1ccccc1
    i	1.7	7	-3	-1.6
- COc1cccc(CNC(=O)C[C@H]2C=C[C@@H](NC(=O)C3CC3)[C@@H](CO)O2)c1
    i	-1.9	-7	-10	1.2
- Nc1nc(=O)n(C2OC(CO)C(O)C2O)cc1F (centres undefined)
    i	-1.9	5	13	-6.5
- COc1cccc(S(=O)(=O)N[C@@H]2CC[C@@H](CCN)O[C@@H]2CO)c1
    i	2.1	0	4	0.9
- C[C@H]1CN([C@@H](C)CO)C(=O)Cc2cc(NC(=O)C3CCCCC3)ccc2O[C@@H]1CN(C)Cc1ccc(Cl)c(Cl)c1
    i	1.6	2	0	-0.8
- COCC(=O)N1[C@H](CO)[C@@H](c2ccccc2)C12CN(C(=O)NC1CCCCC1)C2
    i	-2.4	1	12	-3.8

# (next part)
smiles	FGF22 binding	AF4-AF9 inh	rRNA inh HTS	rRNA inh HTS OD600	rRNA inh HTS RFP
Cc1ccc(CN(C)C[C@@H]2OCc3cnnn3CCCC(=O)N([C@@H](C)CO)C[C@H]2C)cc1	i	-2.7&0.5&-1.9	6&3	15&4	0.1&1.5
CCOC(=O)C1=CCN(S(=O)(=O)c2ccc(Br)cc2)C1c1ccc(F)cc1 (centres undefined)	i	-2.3	-9	-39	-8.1
COc1cccc(NC(=O)N(C)C[C@H]2Oc3cc(-c4cccc(C(=O)N(C)C)c4)ccc3S(=O)(=O)N([C@H](C)CO)C[C@@H]2C)c1	i	-18	-2	-3	-2.4
Cc1ccc(C(O)c2ncc(-c3ccc4ccccc4c3)[nH]2)cc1 (centres undefined)	i	-1.3	-16	-19	2.0
C[C@H](CO)N1C[C@H](C)[C@H](CN(C)Cc2ccc(Oc3ccccc3)cc2)Oc2c(NS(=O)(=O)c3cccs3)cccc2C1=O	i	2.9	-1	-6	1.7

# One compound at a time (already shown). Order of values: FGF22 binding, AF4-AF9 inh, rRNA inh HTS, rRNA inh HTS OD600, rRNA inh HTS RFP
# `O=S1(=O)N[C@H](Cc2ccccc2)COc2cccc(N3CCC[C@H]3CO)c21` across the screens: i, -1.3, -22*, -13*, 0.1*
# `CO[C@@H]1CN(C)C(=O)c2cc(NC(=O)c3ccccc3F)ccc2OC[C@@H](C)N(CC2CCOCC2)C[C@H]1C` across the screens: i, 0.5, -3, 3, -0.6
